CSC inhib: cancer stem cell inhibition | 300,000 tested, 1.1% active | inhibition, % at 7.5 µM | cancer stem cell-like cells viability, luminescence;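 active = mean at 75% or more and at least half the replicates too; tested in HMLE shEcad cells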;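 note: 0% = median of negative and 100% = median of positive control wells; the first replicate is given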
MT1-MMP act inh: inhibitors of human MT1-MMP activation; P50281; 360,000 tested, 0.061% active; GFP/RFP ratio change, % at 20 µM; HT1080 RFP-PRO-GFP cells, GFP/RFP ratio fluorescence, overnight; percent of plate control window, DMSO zero;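 active = GFP/RFP ratio change of at least 30% with cell ATP level not reduced by more than half and red fluorescence within 50% of control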; note: strong numbers were not always called active
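Test system: HT1080 RFP-PRO-GFP cells; Benchmarks: DMSO and RFP-L50D-GFP cell wells; Timing: cells overnight before dosing, compound overnight, 37 °C, 5% CO2; Compound: one 20 µM compound dose with 1% DMSO; Read-out: GFP/RFP fluorescence ratio.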
eIF4H inh: inhibitors of RNA binding by human eIF4H | Q15056 | eIF4H fluorescence polarization binding assay | inhibition, % at 35 µM | 290,000 tested, 0.94% active | AID 2012;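 active = 50% or more with normal probe brightness, or confirmed in later tests; about a fifth of its hits are not listed in these tables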;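 note: calls also rest on retests at 20 µM and on dose response follow-up; 0% = protein and probe with vehicle and 100% = probe without protein; strong numbers were not always called active; many hits fall short of the cut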
HIV Env fusion: blocks HIV Env-driven cell-cell fusion | HeLa-JRFL Env/CEM21 cell fusion, luciferase | inhibition, % at 12.3 µM | 360,000 tested, 1.1% active | AID 651610;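 active = mean replicate inhibition score of at least 50 and every replicate individually at or above 50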;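 note: 0% = plate neutral controls and 100% = maraviroc near 300 nM; one replicate is shown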
PABP FP inh: blocks human PABP binding to poly(A) RNA; 290,000 tested, 1% active; inhibition, % at 35 µM; fluorescence polarization; P11940;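 active = 50% or more with normal probe brightness, or confirmed in later tests; about a fifth of its hits are not listed in these tables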;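 note: calls also rest on retests at 20 µM and on dose response follow-up; controls were probe without protein and protein plus probe with vehicle; some compounds called inactive have numbers as strong as hits; many hits fall short of the cut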
Yeast UUG start: modulators of start codon recognition fidelity in yeast | S. cerevisiae UUG-firefly luciferase reporter, luminescence/redox ratio | activity score, % at 18.7 µM | 350,000 tested, 0.13% active | AID 602363;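 active = replicate mean at a twofold rise or more, about +100% in these data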;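 note: firefly luciferase made from a UUG start codon reports start codon fidelity; reporter light over untreated wells divided by growth signal over untreated wells; some hits fall short of that in this replicate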
Rce1 inh: inhibitors of yeast Ras-converting enzyme. 290,000 tested, 0.27% active. yeast membranes, quenched prenylated peptide cleavage fluorescence. Q03530. calls only;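 active = fall in fluorescence gain of 50% or more versus controls, with final raw signal at or below 3038400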;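 note: plate controls were neutral control wells for no effect and wells lacking membranes for full effect; tested at 10 µM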
Target sequence (Q03530 whole entry, looked up): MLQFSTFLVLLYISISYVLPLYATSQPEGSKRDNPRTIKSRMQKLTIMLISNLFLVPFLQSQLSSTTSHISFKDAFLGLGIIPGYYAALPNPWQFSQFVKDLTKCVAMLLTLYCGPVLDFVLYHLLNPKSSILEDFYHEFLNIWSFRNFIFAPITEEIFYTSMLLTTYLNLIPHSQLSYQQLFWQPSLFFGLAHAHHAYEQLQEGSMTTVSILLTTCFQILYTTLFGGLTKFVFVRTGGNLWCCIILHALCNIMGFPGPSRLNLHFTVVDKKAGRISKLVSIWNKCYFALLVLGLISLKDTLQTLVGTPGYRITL
MT1-MMP act inh RFP: also measured in MT1-MMP act inh; calls as there; RFP signal change, %; measured here: RFP expression control read;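 0 = vehicle wells; hits needed this value within 50% of zero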
Active calls of the source: *; i = inactive; . = no result given; & = joins results of further samples.

Start of the listing, in advance (5 entries):
Screens in order: CSC inhib	MT1-MMP act inh	MT1-MMP act inh RFP	eIF4H inh	HIV Env fusion	PABP FP inh	Yeast UUG start	Rce1 inh
1: O=c1[nH]c(CSc2nc3ccccc3[nH]2)nc2c1cnn2-c1ccccc1
    4	-7	-26	6	.	1	-6	i
2: Cc1ccnc(NC(=O)c2cccc(S(=O)(=O)NCc3ccccc3)c2)c1
    3	-5	-5	.	-8	.	.	i
3: Cc1cc(NC(=O)CN2CCCC2c2nc3ccccc3s2)no1 (stereo unspecified)
    -4	-2	3	-2	0	-4	-14	i
4: Cn1c(SCC(=O)NC2CCCCC2)nnc1-c1ccncc1
    -5	-3	1	-10	14	1	-3	i
5: CCCCOP(=O)(c1ccc(N(C)C)cc1)C(O)c1ccc(N(C)C)cc1 (stereo unspecified)
    15	2	3	-1	14	-8	-7	i

The list itself, repeating the preview:
Screens in order: CSC inhib	MT1-MMP act inh	MT1-MMP act inh RFP	eIF4H inh	HIV Env fusion	PABP FP inh	Yeast UUG start	Rce1 inh
1: O=c1[nH]c(CSc2nc3ccccc3[nH]2)nc2c1cnn2-c1ccccc1
    4	-7	-26	6	.	1	-6	i
2: Cc1ccnc(NC(=O)c2cccc(S(=O)(=O)NCc3ccccc3)c2)c1
    3	-5	-5	.	-8	.	.	i
3: Cc1cc(NC(=O)CN2CCCC2c2nc3ccccc3s2)no1 (stereo unspecified)
    -4	-2	3	-2	0	-4	-14	i
4: Cn1c(SCC(=O)NC2CCCCC2)nnc1-c1ccncc1
    -5	-3	1	-10	14	1	-3	i
5: CCCCOP(=O)(c1ccc(N(C)C)cc1)C(O)c1ccc(N(C)C)cc1 (stereo unspecified)
    15	2	3	-1	14	-8	-7	i
6: O=C(Nc1nccs1)c1cc(-c2ccccn2)nc2c(Cl)cccc12
    7	-1	1	-4	0	2	-12	i
7: Cn1cccc1C(=O)Nc1nc(-c2ccccn2)cs1
    24	6	-2	21	-29	17	-35	i
8: CCN(CC)C(=O)c1cn(C)c(=O)c2cc(OC)c(OC)cc12
    -10	5	21	-7	-87	-8	-2	i
9: Nc1nc(SCC(=O)Nc2cc(S(=O)(=O)N3CCOCC3)ccc2Cl)n[nH]1
    -4	2	-1	-9	21	-8	-15	i
10: N#Cc1ccc(C(=O)OCC(=O)Nc2ccc(N3CCOCC3)cc2)cc1
    1	18	2	3	-9	-3	.	i
11: NS(=O)(=O)c1cccc(NC(=O)COC(=O)CN2C(=O)c3ccccc3C2=O)c1
    .	-2	4	.	2	.	-5	.
12: CCOC(=O)c1c(S(=O)(=O)NCC(=O)Nc2cccc(F)c2)c(C)n(C)c1C
    -12	-3	1	.	25	.	-9	i
13: CCN(CC)C(=O)c1cccc(-c2csc(C(O)c3ccc(F)c(F)c3)n2)c1 (stereo unspecified)
    .	-9	-24	.	7	.	-9	.
14: O=C(COC(=O)c1cccc([N+](=O)[O-])c1)Nc1ncc(Br)s1
    -22	0	-1	.	17	.	-2	.
15: CC(Sc1nnc(-c2ccco2)o1)C(=O)Nc1ccc(OC(F)F)cc1 (stereo unspecified)
    -3	3	1	.	.	.	-15	.

Screens in order: CSC inhib	MT1-MMP act inh	MT1-MMP act inh RFP	eIF4H inh	HIV Env fusion	PABP FP inh	Yeast UUG start	Rce1 inh
16: Cc1onc(-c2ccccc2)c1C(=O)N1CCN(S(=O)(=O)c2ccc(Cl)cc2)CC1
    -7	-1	0	-6	-4	-6	.	i
17: S=C1NC(c2ccccc2)=NCN1c1ccc(Br)cc1
    -7	-3	-3	-4	.	-2	-12	i
18: CCCCN1C(=O)C(NC(=O)C2CC2)(C(F)(F)F)C2=C1CC(C)(C)CC2=O (stereo unspecified)
    4	-1	-5	-13	-16	-10	-12	i
19: COC(=O)c1ccccc1NC(=O)CSc1nnc(-c2ccoc2C)n1C
    -12	-2	0	-6	-70	-4	-29	i
20: CC(=O)C1=C(C)Nc2ncnn2C1c1ccc(Cl)cc1Cl (stereo unspecified)
    -3	-2	-3	-1	.	-13	6	i
21: O=C(Nc1cccc(Cl)c1)c1cccnn1
    -8	-4	0	-10	-1	-2	-5	i
22: Cc1cc(C)c(-c2cc(NC(=O)CSc3n[nH]c(N)n3)n(-c3ccccc3)n2)cc1C
    6	0	0	-5	.	-3	-28	.
23: C#CC(C)(C)NC(=S)NC1CC2C=CC1C2 (stereo unspecified)
    26	6	3	-3	-11	0	.	i
24: Cc1nnc2sc(SCC(=O)N3CCc4ccccc43)nn2c1=O
    .	2	5	.	-4	.	-11	.
25: COc1ccccc1C(=O)NCCCN1CCCC1=O
    -11	3	4	-5	.	36	.	i
26: O=C(NCC(c1ccco1)N1CCCC1)c1cccc(S(=O)(=O)N2CCOCC2)c1 (stereo unspecified)
    0	2	0	.	40	.	-12	.
27: CCOC(=O)N1CCC2(CC1)C(C#N)=C(N)Oc1n[nH]c(CSc3ccc(C)cc3)c12
    -6	2	0	3	9	7	-12	i
28: O=C(NCc1csc(-c2cccs2)n1)Nc1cccc(Cl)c1
    1	2	4	-11	9	-3	.	i
29: CCc1noc(C)c1C(=O)NNC(=O)COc1ccc(C)c(C)c1
    6	0	2	.	-2	.	.	i
30: O=C(N/N=C/c1ccco1)c1cc(C2CC2)[nH]n1
    -5	0	1	3	-25	-2	-12	i

Screens in order: CSC inhib	MT1-MMP act inh	MT1-MMP act inh RFP	eIF4H inh	HIV Env fusion	PABP FP inh	Yeast UUG start	Rce1 inh
31: Cc1ccc(-c2nn(CCC(=O)NC(C)C)c(=O)c3ccccc23)cc1
    -5	4	1	2	27	3	-12	i
32: COC(=O)C(NC(=O)c1cccnc1Cl)C(C)C (stereo unspecified)
    4	4	3	-3	-6	-5	.	i
33: COc1cc(NC(=O)c2ccco2)ccc1NC(=O)C(C)C
    11	-1	6	-8	-12	0	2	i
34: O=C(O)c1ccccc1C(=O)NC1CCCc2ccccc21 (stereo unspecified)
    -5	4	1	-8	3	4	-30	i
35: O=C(c1oc(=O)c2ccccc2c1-c1ccccc1)N1CCN(C2CCCCC2)CC1
    -8	2	2	-10	-6	-4	-8	i
36: Nc1cc(-c2ccc(Br)cc2)nc2cc(-c3ccccc3)nn12
    .	2	6	-15	25	5	.	i
37: C=CCn1cnc2c(c1=O)c1nc3ccccc3nc1n2/N=C/c1cccc(OC)c1OC
    33	-2	-8	43	.	3	-9	.
38: CC1CC(C)(C)NC(=S)N1CCC(=O)NCCc1ccc(Cl)cc1 (stereo unspecified)
    10	2	-2	-16	3	-7	-15	.
39: COc1ccc(-c2ccc3oc(-c4ccsc4)cc3c2)cc1
    2	0	0	.	-6	.	-11	i
40: O=S(=O)(NC1CCCCC1Oc1ccccc1)c1ccc(Cl)cc1 (stereo unspecified)
    3	-2	-8	-19	26	1	-2	i
41: C[C@@H]1CN([C@@H](C)CO)C(=O)CCCn2nncc2CO[C@H]1CN(C)S(=O)(=O)c1ccc(Oc2ccccc2)nc1
    .	1	2	.	0	.	8&10	.
42: Cc1ccccc1NC(=S)c1ccc2ccccc2n1
    -13	0	2	5	-52	-12	-37	i
43: CC(=O)c1ccc(-c2ccc(C(=O)NCC(c3ccco3)N(C)C)o2)cc1 (stereo unspecified)
    -8	-2	5	.	-103	.	-11	.
44: COc1ccc(-n2ncc(N(C)n3cccc3)c(Cl)c2=O)cc1
    2	3	4	8	.	-4	-30	i
45: Cc1noc(C)c1CSCC(=O)Nc1nc2ccc(S(C)(=O)=O)cc2s1
    2	-6	0	.	-11	.	-23	i

Down the list, quoted from above:
Compounds 29 to 37 in MT1-MMP act inh, in turn: 0, 0, 4, 4, -1, 4, 2, 2, -2

Going on with the list:
Screens in order: CSC inhib	MT1-MMP act inh	MT1-MMP act inh RFP	eIF4H inh	HIV Env fusion	PABP FP inh	Yeast UUG start	Rce1 inh
46: Cc1ccc(-c2nnc(SCC#CCOC(=O)c3cccs3)o2)cc1
    -4	0	0	-6	-6	-3	.	i
47: NC(=O)c1cc(Cc2ccccc2)sc1NC(=O)c1ccco1
    72	-5	-4	6	.	8	-1	.
48: COc1ccc(CNC(=O)COC(=O)CCC(=O)c2cccs2)cc1
    -19	0	3	-5	2	-2	-7	i
49: O=C(CCN1C(=O)COc2ccccc21)NCCN1CCc2ccccc2C1
    -5	0	2	-1	.	-6	-3	i
50: CC(C)C[C@H](NC(=O)c1[nH]cnc1C(=O)N[C@@H](C)C(=O)OCc1ccccc1)C(=O)OC(C)(C)C
    -4	-9	-15	8	1	-2	-14	i
51: Cc1ccccc1NC(=O)COC(=O)CN1C(=O)NC(C)(C)C1=O
    4	-1	-2	-4	12	4	-9	i
52: COc1ccc(OC)c(CC(=O)NC(c2ccccc2)c2ccccc2)c1
    1	-6	-6	7	-6	-6	-11	i
53: COc1ccc(N2CCN(CC(=O)N3c4ccccc4CC3C)CC2)cc1 (stereo unspecified)
    -3	0	-4	6	-1	13	-5	i
54: CNC(=O)/C(C#N)=C\c1ccc(CNS(=O)(=O)c2ccccc2)o1
    9	1	1	9	12	6	-21	i
55: Cc1c(S(=O)(=O)Nc2ccc3c(c2)OCCO3)cnn1C
    -13	6	3	3	6	-5	.	i
56: CCCNC(=O)C1CCN(c2nc(C)cc(C)n2)CC1
    -7	2	4	0	.	3	-14	i
57: COc1ccc(NC(=O)Nc2ccc(F)c(Cl)c2)cc1
    17	5	-5	6	-92	8	.	i
58: CCN(CC)CCNC(=O)CNC(=O)c1nn(-c2ccc(OC)c(OC)c2)c(=O)c2ccccc12
    1	-2	0	-5	12	-6	-9	i
59: COc1cc(NC(=O)c2cccs2)ccc1NC(=O)c1cc2ccccc2o1
    11	-3	-3	3	-219	-10	.	i
60: O=C(c1ccccc1NS(=O)(=O)c1cccs1)N1CCCC1
    -8	-2	-3	-17	-34	1	-4	i

In another format: entries from further up.
#55 Cc1c(S(=O)(=O)Nc2ccc3c(c2)OCCO3)cnn1C
#56 CCCNC(=O)C1CCN(c2nc(C)cc(C)n2)CC1

Screen / compound no. | 55 | 56
CSC inhib | -13 | -7
MT1-MMP act inh | 6 | 2
MT1-MMP act inh RFP | 3 | 4
eIF4H inh | 3 | 0
HIV Env fusion | 6 | .
PABP FP inh | -5 | 3
Yeast UUG start | . | -14
Rce1 inh | i | i

Next part:
Screens in order: CSC inhib	MT1-MMP act inh	MT1-MMP act inh RFP	eIF4H inh	HIV Env fusion	PABP FP inh	Yeast UUG start	Rce1 inh
61: COc1ccc(NC(=S)Nc2ccccc2)cc1
    -6&-13	2&-1	1&4	-3&-1	-9&-16	4&-4	-20&-19	i
62: COc1ccccc1OC(=O)CCN1c2ccccc2Sc2ccccc21
    9	-1	0	9	.	-2	.	i
63: Cc1nc(N2CCOCC2)nc(N2CCC(C)CC2)c1[N+](=O)[O-]
    -1	2	-5	2	3	0	.	i
64: O=C(Nc1nnc(C2CC2)s1)c1cc(Cl)sc1Cl
    17	1	-4	-8	-7	-1	-17	i

Entries of single compounds from above.
Cc1nc(N2CCOCC2)nc(N2CCC(C)CC2)c1[N+](=O)[O-] is listed as CSC inhib = -1; MT1-MMP act inh = 2; MT1-MMP act inh RFP = -5; eIF4H inh = 2; HIV Env fusion = 3; PABP FP inh = 0; Yeast UUG start = .; Rce1 inh = i
COc1ccccc1OC(=O)CCN1c2ccccc2Sc2ccccc21 is listed as CSC inhib = 9; MT1-MMP act inh = -1; MT1-MMP act inh RFP = 0; eIF4H inh = 9; HIV Env fusion = .; PABP FP inh = -2; Yeast UUG start = .; Rce1 inh = i
